High-throughput results as filed in PubChem.
Mtb H37Rv – M. tuberculosis H37Rv growth inhibitors, H37Rv strain (AID 1626). M. tuberculosis H37Rv growth inhibition; higher % means a stronger effect. inhibition, % at 10 µM; hits with a dose series show IC50 in µM. actives 0.95% (n = 220,000);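 active = confirmed in a dose series; inconclusive = inhibition above 80% but not taken into the dose series; inactive = below 80% or under 30% at every dose of the series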;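 note: bacteria incubated seven days before Alamar blue readout; 0% = bacteria only wells and 100% = bacteria with antibiotic wells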
RecA intein inh – blocks M. tuberculosis RecA intein splicing. P9WHJ3. cell-free RecA intein splicing, fluorescence. inhibition, %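 (about 9 µM by stock and volumes)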. actives 0.75% (n = 290,000); in the data active = inhibition above about 30%; inconclusive = no clear call, values can overlap the other calls;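 note: 0% = vehicle wells and 100% = reference inhibitor control wells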
Target sequence (P9WHJ3 whole entry, looked up): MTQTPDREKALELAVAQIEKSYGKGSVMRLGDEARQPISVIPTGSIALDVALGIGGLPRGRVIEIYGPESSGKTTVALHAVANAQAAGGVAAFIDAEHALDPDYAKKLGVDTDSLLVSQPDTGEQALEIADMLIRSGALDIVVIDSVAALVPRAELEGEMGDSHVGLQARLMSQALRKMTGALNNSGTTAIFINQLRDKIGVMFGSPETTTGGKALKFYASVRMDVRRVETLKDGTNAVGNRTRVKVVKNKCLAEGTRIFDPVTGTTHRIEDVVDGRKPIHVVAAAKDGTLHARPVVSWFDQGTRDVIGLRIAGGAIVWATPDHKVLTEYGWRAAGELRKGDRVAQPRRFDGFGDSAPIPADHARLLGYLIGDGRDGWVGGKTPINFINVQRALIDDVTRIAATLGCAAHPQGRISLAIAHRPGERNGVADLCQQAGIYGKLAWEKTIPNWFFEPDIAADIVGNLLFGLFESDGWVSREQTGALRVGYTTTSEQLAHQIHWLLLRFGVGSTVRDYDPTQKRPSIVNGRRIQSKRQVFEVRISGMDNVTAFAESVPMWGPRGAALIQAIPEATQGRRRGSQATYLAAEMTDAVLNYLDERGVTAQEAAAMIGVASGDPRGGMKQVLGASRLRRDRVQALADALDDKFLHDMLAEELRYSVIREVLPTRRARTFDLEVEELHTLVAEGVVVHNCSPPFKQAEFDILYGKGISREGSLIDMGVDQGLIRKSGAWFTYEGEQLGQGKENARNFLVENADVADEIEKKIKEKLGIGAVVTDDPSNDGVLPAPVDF
Arbovirus inh – antivirals against arbovirus infection; arbovirus infection cell-based antiviral screen; inhibition, % at 10 µM; actives 0.37% (n = 200,000); AID 1251;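 active = inhibition from about 30%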;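 note: bluetongue infection of BSR cells; cell survival read as ATP light after 72 h; 0% = infected wells without compound and 100% = uninfected wells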
Mtb bLac sens – beta-lactam sensitization of Mtb H37Rv; M. tuberculosis H37Rv growth with meropenem, percent inhibition; hits of this screen are not shown here; inhibition, % at 25 µM; actives 0.27% (n = 330,000); AID 434955;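 active = about 74% or more and at least 40 points above the plate without the antibiotic, then above 30% in a dose series; inconclusive = first-round hits that could not be retested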;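 note: growth measured after seven days incubation then overnight dye step; 0% = bacteria only wells and 100% = bacteria with antibiotic; twin plates without the antibiotic show which effects depend on it; some results filed as inactive read as strong as hits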
YopH PTP inh – inhibitors of Yersinia enterocolitica YopH tyrosine phosphatase; actives 0.16% (n = 140,000); inhibition, %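 (about 10 µM by stock and volumes)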; fluorescence Ex485/Em525;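 active = inhibition of 50% or more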;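 note: controls were vehicle for no effect and minimum signal wells for full effect; inactives centre near -20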
Arbovirus inh repeat – also measured in Arbovirus inh; calls as there; inhibition, %; measured here: 10K subset replicate screen; many hits read low in the repeat;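 first of two repeat runs on a subset; 0% = infected and 100% = uninfected wells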
The depositor's hits bear a star; u = inconclusive; x = no result given. Not all compounds are listed, so the mix of outcomes need not match the whole.

SMILES | Mtb H37Rv | RecA intein inh | Arbovirus inh | Mtb bLac sens | YopH PTP inh | others
COc1ccccc1NC(=O)CSc1nnc(CNC(=O)c2ccco2)o1 | -10% | 0.8 | 9 | -2 | -9
COc1cc(/C=C(\C#N)C(=O)NCC2CCCO2)ccc1OCCC(C)C (stereo not drawn) | 10% | 5.9 | x | 65 | x
Cc1ccc(OCC(=O)NC(=S)Nc2cccc(NC(=O)c3ccccc3Cl)c2)cc1 | 6% | -1.2 | -6 | 3 | -23
O=C(COc1ccccc1[N+](=O)[O-])Nc1ccc2c(c1)OCO2 | 2% | -4.2 | -2 | -7 | x
COc1cccc(-c2nc(CS(=O)(=O)CC(=O)NCCCN3C(C)CCCC3C)c(C)o2)c1 (stereo not drawn) | x | 1.6 | x | -4 | x
CC(C)(C)c1ccc(O)c(N=Cc2cc3c(cc2[N+](=O)[O-])OCO3)c1 | x | -5.8 | x | 6 | x
CCCCNC(=O)c1c(CSc2ccc(Cl)cc2)noc1C(=O)NCc1ccccc1 | -8% | 1.5 | x | -4 | x
CCCC(=NC(C)CC)C1=C(O)CC(c2ccccc2)CC1=O (stereo not drawn) | x | 3.8 | x | 4 | x
O=C(COc1ccc(Br)cc1CO)Nc1ccccc1F | 1% | 1.9 | 6 | 4 | -8
S=C(Nc1ccccc1)Nc1ccc2cn[nH]c2c1 | -6% | 19 | x | -8 | x
Clc1ccc(/C=C/c2ncc[nH]2)c(Cl)c1 | x | 2.3 | x | 0 | x
CCCCn1c(CN2CCOCC2)nc2c1c(=O)n(C)c(=O)n2C | 0% | 2.7 | 3 | -5 | -14 | Arbovirus inh repeat=3
COc1ccc(CCNC(=O)C2CCN(c3nccc(C)n3)CC2)cc1 | 4% | x | 4 | -3 | x
Oc1cccc(C2c3[nH]c4ccccc4c3CCN2Cc2ccoc2)c1 (stereo not drawn) | -1% | -0.7 | 3 | -1 | x
COc1ccc(COC(=O)C2=C(C)NC(=O)NC2c2ccc(F)cc2)cc1 (stereo not drawn) | x | 3.3 | x | -1 | x
COC(=O)c1ccc(OCC(O)CN2CCc3cc(OC)c(OC)cc3C2c2ccccc2)cc1 (stereo not drawn) | x | -3.7 | x | 95 | x
CN(C)CC(C(=O)c1ccccc1)c1ccccc1 (stereo not drawn) | u | 5.5 | -46 | 100 | -6
Nc1cccc(-c2cc(-c3ccccc3)nc(-c3cccc(N)c3)n2)c1 | 69% | -3.9 | -10 | 4 | -20
Nc1ccc2nc(-c3cc(Cl)c(N)c(Cl)c3)[nH]c2c1 | 2% | -6.7 | -20 | -4 | 2
CCNC(=S)NNC(=O)c1cc(-c2ccccc2C)nc2ccccc12 | 12% | -2.5 | -9 | -5 | -38
Cc1ccc(-c2nnn(CC(=O)N(c3cccc(O)c3)C(C(=O)NC(C)(C)C)c3cccs3)n2)o1 (stereo not drawn) | 0% | 0.6 | 0 | -2 | -37
N#CC1=C2SCN(c3ccccc3)CN2C(=O)CC1c1cccs1 (stereo not drawn) | -15% | 5.5 | 0 | -3 | -49
COC(=O)c1cn(NC(=O)c2cccc(N(C)C)c2)c(=O)c2ccccc12 | -12% | -7.3 | 10 | 0 | -43
Cc1csc(Nc2ccc(Cl)cc2)[n+]1-c1ccc(Cl)cc1 | 11% | 22 | -14 | 5 | x
CCCCOC(=O)c1ccc(NC(=O)c2c(O)[nH]c(=O)[nH]c2=O)cc1 | 53% | 1.4 | x | 18 | x
O=c1cc(-c2ccccc2Cl)oc2ccc([N+](=O)[O-])c(O)c12 | 69% | 2.0 | 8 | 95 | -4
O=C(NCCCN1CCOCC1)c1cc(-c2ccccc2)on1 | -6% | 1.1 | -6 | 4 | -32
O=C(c1cc(-c2ccccc2)on1)N1CCCC1 | -3% | 1.1 | -1 | -1 | -23
COCCNC(=O)c1onc(CSc2ccc(F)c(F)c2)c1C(=O)NCCOC | -6% | 1.2 | x | -1 | x
CCOc1ccccc1-n1c(=S)sc2c(=O)n(-c3ccccc3)c(=S)[nH]c21 | 6% | -4.4 | -1 | 19 | x
CCCc1cc(=O)[nH]c2nnc(SCC(=O)NC3CCCCC3)n12 | x | -3.7 | x | -12 | x
CC1CCN(C(=O)c2ccc3c(=O)n4c(nc3c2)CCCCC4)CC1 | x | 1.2 | x | -1 | x
Cc1cc(C)nc(Nc2n[nH]c(-c3ccccc3Cl)n2)n1 | 8% | 1.3 | -1 | -4 | x
O=C(CCC1CCCC1)N1CCN(S(=O)(=O)Cc2ccccc2)CC1 | -15% | 2.1 | 1 | -10 | -50
CC1(CC(=O)O)C(=O)N=C2C=CC=CN21 (stereo not drawn) | -1% | -1.0 | 8 | x | -70
O=C(OCc1cncs1)c1ccccc1 | -2% | -0.8 | -1 | -3 | x
CCCN(C(=O)c1ccc(N(C)S(=O)(=O)c2ccc(C)cc2)cc1)C1CCS(=O)(=O)C1 (stereo not drawn) | x | -0.8 | x | 0 | x
COc1ccc(NC(=O)c2cc(=O)c3ccccc3o2)cn1 | -6% | -1.9 | -5 | -9 | -42
Cc1cccc(NC(=O)/C(C#N)=C/c2ccccc2Cl)n1 | x | 0.2 | x | -1 | x
O=C1N/C(=N/S(=O)(=O)Cc2ccccc2)S/C1=C/c1ccc2c(c1)OCO2 | -6% | 2.3 | x | -6 | x
Cc1ccc(C(=O)Nc2ccc(C(=O)N/N=C/c3c[nH]c4ccccc34)cc2)cc1 | 12% | -1.8 | -13 | 1 | -17
O=S(=O)(Cc1ccccc1Cl)NCCOc1ccccc1 | 2% | -0.2 | -4 | 3 | -23
COc1cc(C2C(C#N)=C(N)Oc3c2oc(CO)cc3=O)cc(OC)c1OC (stereo not drawn) | -10% | -0.3 | 1 | 4 | -46
CCn1c(CSc2nc3ccccc3s2)nnc1SCC(=O)c1ccc(O)c(O)c1 | -11% | -5.3 | -28 | 8 | -6
CCCc1[nH]nc2c1C(c1cc(OC)ccc1F)C(C#N)=C(N)O2 (stereo not drawn) | -3% | 30 | -3 | -8 | 7
COC(=O)c1c(-c2ccccc2Cl)noc1-c1cnc(N)nc1C(F)(F)F | -16% | -0.5 | x | 3 | x
Cc1c(OC(C)C(=O)NC(Cc2c[nH]c3ccc(O)cc23)C(=O)O)ccc2c1oc(=O)c1ccccc12 (stereo not drawn) | x | -1.9 | x | -8 | x
N#Cc1cc([N+](=O)[O-])ccc1Oc1cccc(/C=N/NC(=O)c2ccc(Cl)cc2)c1 | -2% | -4.4 | -10 | 30 | 13
Brc1cccc(-c2nnco2)c1 | 1% | -1.3 | -1 | -18 | -31
CC(C)(C)C(=O)NC(=S)Nc1ccc(C(F)(F)F)cc1 | 4% | 2.6 | x | 42 | x

Going on with the list.
SMILES | Mtb H37Rv | RecA intein inh | Arbovirus inh | Mtb bLac sens | YopH PTP inh | others
CC1C/C(=C/c2ccco2)C(=O)/C(=C/c2ccco2)C1 (stereo not drawn) | 1% | 8.1 | 5 | 7 | 8
Nc1[nH]nc2nc(N3CCOCC3)nc(-c3ccccc3)c12 | -6% | 1.5 | -1 | -6 | -6 | Arbovirus inh repeat=-4
Cc1ccc(-c2nc(Nc3cccc(C)c3)sc2CC(=O)O)cc1 | 9% | -1.9 | 1 | -11 | x
Cc1ccc(NC(=O)c2ccccc2)cc1 | 8% | 2.3 | 1 | -7 | -29
CC(Oc1ccc(F)cc1)C(=O)N(Cc1ccccc1)c1c(N)n(Cc2ccccc2)c(=O)[nH]c1=O (stereo not drawn) | x | 1.7 | x | 0 | x
CCc1cccc(CC)c1C(OC(C)=O)c1cccnc1 (stereo not drawn) | x | 3.9 | x | -4 | x
CCOc1ccc(NC(=S)NC(=O)Cc2ccccc2)cc1 | x | -0.5 | x | 98 | x
COc1ccc(Cl)cc1NC(=S)N1CCN(C(=O)C2CCCO2)CC1 (stereo not drawn) | -2% | -0.1 | -4 | -3 | x
c1ccc(-c2ccc(-c3ccccn3)nn2)nc1 | x | -7.0 | -41 | 46 | -21
CCN(C(=O)COC(=O)c1cccn1C)C1CCS(=O)(=O)C1 (stereo not drawn) | 1% | 1.9 | 2 | -2 | x

Quoted at random: 4 entries already listed, in no set order.
SMILES | Mtb H37Rv | RecA intein inh | Arbovirus inh | Mtb bLac sens | YopH PTP inh | others
Cc1ccc(NC(=O)c2ccccc2)cc1 | 8% | 2.3 | 1 | -7 | -29
COc1ccc(Cl)cc1NC(=S)N1CCN(C(=O)C2CCCO2)CC1 (stereo not drawn) | -2% | -0.1 | -4 | -3 | x
Nc1[nH]nc2nc(N3CCOCC3)nc(-c3ccccc3)c12 | -6% | 1.5 | -1 | -6 | -6 | Arbovirus inh repeat=-4
c1ccc(-c2ccc(-c3ccccn3)nn2)nc1 | x | -7.0 | -41 | 46 | -21

(list continues)
SMILES | Mtb H37Rv | RecA intein inh | Arbovirus inh | Mtb bLac sens | YopH PTP inh | others
O=C(NC(=S)N1CCCC1)c1cccc([N+](=O)[O-])c1 | x | -3.3 | x | 76 | x
Cc1nnc(-c2cnn(-c3ccccc3)c2N)n1Cc1ccncc1 | -2% | -0.2 | 2 | -3 | -17
Clc1ccc2nnnc(-c3ccccc3)c2c1 | 5% | 56* | -36 | 3 | -17
CCOCCc1nnc(NC(=O)COC)s1 | 4% | -3.1 | -1 | 5 | 22
CCn1cc(S(=O)(=O)N2CCN(Cc3ccc(F)cc3)CC2)cn1 | 6% | 0.6 | -1 | 2 | x
O=C(c1ccco1)N1CCN(C(=O)c2cc(-c3ccccc3)nc3ccccc23)CC1 | -8% | 1.2 | -3 | -3 | 22
CCOC(=O)N1CCN(c2c(N3CCN(c4ccccc4OC)CC3)c(=O)c2=O)CC1 | 6% | -0.5 | x | -3 | -19
CCCCc1ccc(-n2c(Cc3cccs3)n[nH]c2=S)cc1 | 10% | 7.4 | -7 | 0 | x
CC(C)CC(C(=O)Nc1ccc2c(c1)OCCO2)N1C(=O)c2ccccc2C1=O (stereo not drawn) | -4% | -2.8 | 10 | 6 | -31
CC(C)=CCC(C)(C)/C=N/NC(N)=O | -9% | -0.1 | x | -1 | x

Reprinted from the part before: 4 compounds, then new ones.
SMILES | Mtb H37Rv | RecA intein inh | Arbovirus inh | Mtb bLac sens | YopH PTP inh | others
CCOC(=O)N1CCN(c2c(N3CCN(c4ccccc4OC)CC3)c(=O)c2=O)CC1 | 6% | -0.5 | x | -3 | -19
CCCCc1ccc(-n2c(Cc3cccs3)n[nH]c2=S)cc1 | 10% | 7.4 | -7 | 0 | x
CC(C)CC(C(=O)Nc1ccc2c(c1)OCCO2)N1C(=O)c2ccccc2C1=O (stereo not drawn) | -4% | -2.8 | 10 | 6 | -31
CC(C)=CCC(C)(C)/C=N/NC(N)=O | -9% | -0.1 | x | -1 | x
O=C1C2C3C=CC(C3)C2C(=O)N1/N=C/c1cc(Br)cc([N+](=O)[O-])c1O (stereo not drawn) | -2% | 3.6 | -7 | 3 | -39
CC(=O)c1cc(-c2ccccc2)n(CCC(=O)NC2CCCC2)c1C | 2% | -2.5 | 10 | 2 | x
COc1ccccc1C(=O)Nc1ccccc1C(=O)N1C(C)CCCC1C (stereo not drawn) | 2% | 0.2 | -6 | 0 | x
CCc1cc(=O)oc2cc3occ(-c4ccc(OC)c(F)c4)c3cc12 | -8% | 0.9 | -17 | 1 | -18
COc1ccccc1NCC(=O)N/N=C/c1c(O)ccc2ccccc12 | x | -10 | x | 9 | x
CS(=O)(=O)N(Cc1cc2ccccc2[nH]c1=O)C1CCCCC1 | x | 2.5 | 12 | -3 | -47
O=C(CN1C(=O)CC(c2ccccc2)=Nc2ccccc21)NCc1ccco1 | 1% | -2.0 | -1 | -13 | -22
NC(N)=N/N=C/c1ccc(Cl)c([N+](=O)[O-])c1 | 1% | -2.2 | -1 | -8 | x
CCC1CN(C(=O)N2CCC(C(=O)NCc3cc(OC)c(OC)c(OC)c3)CC2)c2ccccc2O1 (stereo not drawn) | x | -0.3 | x | 0 | x
CCN(CC)c1ccc(NC(=O)COC(=O)C23CCC(=O)N2c2ccccc2S3)cc1 (stereo not drawn) | 1% | -3.0 | 2 | -1 | -20
c1nc(NCC2CCCO2)c2[nH]cnc2n1 (stereo not drawn) | 2% | -0.6 | 7 | 1 | -23 | Arbovirus inh repeat=1
CCCCn1c(N)c(N(CCOC)C(=O)CSCc2ccc(C)cc2)c(=O)[nH]c1=O | x | 0.0 | x | -6 | x
Cc1nc(NC(=O)/C=C/c2ccc(C(C)(C)C)cc2)sc1C(=O)N(C)C | 1% | 0.0 | -17 | -1 | -23
CCOCCCNc1ccc(N2C(=O)C3CCCCC3C2=O)cc1[N+](=O)[O-] (stereo not drawn) | -5% | 1.9 | 1 | -2 | x
CCCCCC(=O)NC(=S)Nc1ccc(NC(=O)c2ccco2)cc1 | 49% | 2.4 | -3 | 89 | 6
N#CCc1nn(-c2ccccc2)c2ncnc(N)c12 | 6% | 0.5 | x | -5 | x
CN1CCC(=NNC(=O)CN(c2cccc(Br)c2)S(C)(=O)=O)CC1 | 20% | 2.2 | 0 | 6 | x
